Screening data from PubChem.
BJeLR viab HTS – BJeLR cell viability loss, primary screen, luminescence, CellTiterGlo ATP | viability loss activity score, % (no concentration beside the values) | BJeLR fibroblasts viability, 48 h; HRASV12, hTERT and SV40 LT/ST transformed | 30,000 compounds, 0.64% hits | AID 2275, 2010; in the data active means viability loss activity score above about 50%; about a fifth of its hits are not listed in these tables;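 further: higher score means fewer live cells and less ATP luminescence; stock transfer was 50 or 100 nL into about 30 µL; 0% = vehicle wells and 100% = a reference killing control; one replicate is shown; the record names a cut of 85%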
A1 inhib – inducers of caspase activity in MEF A1-2A-BIM cells, primary screen, A1 inhibitor project, cell-based, CaspaseGlo luminescence | caspase-Glo luminescence, 3 h; percent of clofoctol signal, DMSO as zero | caspase activation, % (no concentration beside the values) | 21,000 compounds, 0.51% hits;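 active means most replicate scores above 10, or exactly half above 10 with mean activity above 10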;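 further: effector caspase 3 and 7 activity cleaving a DEVD luciferin substrate; 50 nL library stock added to about 30 µL; numbers are from one replicate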
* = called active by the depositor; nt = no result given. Only part of the results is shown; rates above refer to the full screens.

Each structure is followed by: BJeLR viab HTS | A1 inhib
C[C@@H]1CN([C@@H](C)CO)C(=O)c2cccc(N(C)C)c2O[C@H]1CN(C)Cc1ccc(Cl)c(Cl)c1
    -2.8 | nt
CC(C)CC1NC(=O)C(C)NC1=O (stereo not given)
    -9.9 | 0.3
Cc1noc(C)c1NC(=O)Nc1cccc2c1O[C@H](CN(C)C(=O)NC1CCCCC1)[C@@H](C)CN([C@H](C)CO)C2=O
    4.0 | nt
COC(=O)c1ccccc1NC(=O)CSc1nc2ccsc2c(=O)n1-c1ccc(C)c(C)c1
    -5.4 | -1.2
CC(CNC(=O)CCc1nnc2n(Cc3ccccc3)c(=O)c3ccccc3n12)c1ccccc1 (stereo not given)
    1.4 | -0.9
CC(C)NC(=O)N(C)C[C@@H]1Oc2ccc(NC(=O)Nc3ccc(F)cc3)cc2C(=O)N([C@H](C)CO)C[C@@H]1C
    -0.7 | -0.4
CS(=O)(=O)N(CC(=O)NCc1ccccc1)c1cc(C(F)(F)F)ccc1Cl
    3.1 | 0.8
Cc1noc(C)c1NC(=O)Nc1cccc2c1O[C@H](CN(C)Cc1ccc(-c3ccccc3)cc1)[C@@H](C)CN([C@H](C)CO)C2=O
    11 | nt
C[C@H]1CN([C@@H](C)CO)C(=O)c2cc(NC(=O)Nc3ccc(F)cc3)ccc2O[C@H]1CN(C)Cc1ccc2c(c1)OCO2
    -5.1 | 1.2
CC1C=CCC2C(=O)N(c3cccc(Cl)c3)C(=O)C12 (stereo not given)
    0.4 | -0.3

Further entries
Each structure is followed by: BJeLR viab HTS | A1 inhib
O=C1C2CC=CCC2C(=O)N1c1cccc2ccccc12 (stereo not given)
    -1.1 | nt
C[C@H](CO)N1C[C@H](C)[C@H](CN(C)Cc2ccc(-c3ccccc3)cc2)Oc2ccc(NC(=O)Cc3ccccc3)cc2C1=O
    -1.6 | 0.6
NC1=NC(=Nc2cccc(C(F)(F)F)c2)c2ccccc21
    -6.1 | 0.5
C[C@H](CO)N1C[C@H](C)[C@@H](CN(C)Cc2ccc(C(F)(F)F)cc2)Oc2ccc(NC(=O)C3CCCCC3)cc2C1=O
    -0.9 | 0.1
C/C(=N\O)C(=O)NCCc1c[nH]c2ccccc12
    -7.6 | nt
NS(=O)(=O)c1cc2c(cc1Cl)NC(CSCc1ccccc1)=NS2(=O)=O
    1.2 | 0.7
C[C@@H]1CN([C@H](C)CO)C(=O)c2cccc(NC(=O)c3cnccn3)c2O[C@@H]1CN(C)S(=O)(=O)c1cccs1
    19 | nt
C[C@@H]1CN([C@H](C)CO)C(=O)c2cccc(NC(=O)Nc3ccc(C(F)(F)F)cc3)c2O[C@@H]1CN(C)S(=O)(=O)c1ccc(F)cc1
    -5.2 | nt
CC(=O)OC1CC2(C)C3CC=C4C(CC(O)C(O)C4(C)C)C3(C)CCC2(C)C1C(C)(O)C(=O)CCC(C)(C)O (stereo not given)
    -0.4 | -0.3
C[C@H](CO)N1C[C@H](C)[C@@H](CN(C)C(=O)Nc2ccc(F)cc2)Oc2ccc(NC(=O)Cn3cnnn3)cc2C1=O
    -3.5 | -0.3

Other results.
Each structure is followed by: BJeLR viab HTS | A1 inhib
CCN(CC)CCOc1ccc(/C(=C(\Cl)c2ccccc2)c2ccccc2)cc1
    3.9 | 0.6
Cc1noc(C)c1NC(=O)Nc1ccc2c(c1)C(=O)N([C@H](C)CO)C[C@@H](C)[C@H](CN(C)Cc1ccc(-c3ccccc3)cc1)O2
    1.8 | 0.8
C[C@H](CO)N1C[C@H](C)[C@H](CN(C)Cc2ccc3c(c2)OCO3)Oc2c(NS(=O)(=O)c3cccs3)cccc2C1=O
    0.8 | nt
Cc1noc(C)c1NC(=O)N(C)C[C@H]1Oc2ccc(NC(=O)CCN3CCOCC3)cc2C(=O)N([C@@H](C)CO)C[C@@H]1C
    0.9 | -0.3
CN(C)C(=O)N1CCC(C(=O)N2CCC3(CC2)OCCO3)CC1
    1.2 | -0.4
CNC[C@H]1Oc2ccc(NC(=O)CCN3CCOCC3)cc2C(=O)N([C@@H](C)CO)C[C@@H]1C
    -18 | -0.1
Cc1noc(C)c1NC(=O)Nc1cccc2c1O[C@H](CN(C)Cc1ccc(Oc3ccccc3)cc1)[C@@H](C)CN([C@@H](C)CO)C2=O
    1.1 | nt
C[C@@H]1CN([C@@H](C)CO)C(=O)c2cccc(NS(=O)(=O)c3ccc(Cl)cc3)c2O[C@@H]1CN(C)S(=O)(=O)c1cn(C)cn1
    -1.2 | nt
C[C@H](CO)N1C[C@H](C)[C@@H](CN(C)S(=O)(=O)c2cn(C)cn2)Oc2c(NC(=O)Nc3cccc4ccccc34)cccc2C1=O
    -0.7 | nt
O=C(Sc1ccc(Cl)cc1)c1ccc(-c2cccs2)s1
    -1.3 | 0.0

(cont.)
Each structure is followed by: BJeLR viab HTS | A1 inhib
C[C@@H]1CN([C@@H](C)CO)C(=O)c2cc(NC(=O)Nc3cccc4ccccc34)ccc2O[C@@H]1CN(C)C
    3.0 | 0.1
C[C@@H]1CN([C@@H](C)CO)C(=O)c2cccc(NC(=O)Nc3cccc4ccccc34)c2O[C@H]1CN(C)S(=O)(=O)c1cccs1
    -6.4 | nt
C[C@@H]1CN([C@H](C)CO)C(=O)c2cc(NS(=O)(=O)c3ccc(Cl)cc3)ccc2O[C@@H]1CN(C)Cc1ccc(C(F)(F)F)cc1
    -3.9 | 0.6
COc1cc([C@@H]2C3C=C([C@H]4Oc5cc(O)cc(O)c5C(=O)[C@@H]4O)[C@H]4[C@@H]2COC4(O)C3=O)ccc1O
    3.6 | -0.4
CCOC(=O)Cc1cc(C(=O)c2ccc(OC)cc2)sc1-c1ccc(OC)cc1
    3.2 | nt
CC1Cc2ccccc2N1S(=O)(=O)c1cnc[nH]1 (stereo not given)
    7.8 | nt
C[C@@H]1CN([C@@H](C)CO)C(=O)c2cc(NC(=O)C3CCCCC3)ccc2O[C@@H]1CN(C)CC1CCCCC1
    -3.7 | 0.1
CC(C)NC(=O)N(C)C[C@H]1Oc2ccc(NC(=O)Nc3ccccc3)cc2C(=O)N([C@@H](C)CO)C[C@H]1C
    -3.7 | 0.3
CCn1c(C(=O)O)c(CNCCc2ccccc2)c2ccccc21
    1.2 | nt
COc1ccc(NC(=O)Nc2cccc3c2O[C@@H](CN(C)Cc2ccc(C(F)(F)F)cc2)[C@@H](C)CN([C@@H](C)CO)C3=O)cc1
    5.3 | nt

The results go on:
Each structure is followed by: BJeLR viab HTS | A1 inhib
Cc1ccc(C)c(CSCc2nc3ccccc3[nH]2)c1
    2.6 | 0.0
O=C(O)CC(CC(=O)Nc1ccc(Oc2ccccc2)cc1)c1ccccc1 (stereo not given)
    -11 | 0.3
CCN1CCN(c2ncnc3c2c(-c2ccccc2)cn3-c2ccc(Cl)cc2)CC1
    -0.4 | 0.1
C[C@@H]1CN([C@H](C)CO)C(=O)c2cc(NC(=O)Nc3ccc(C(F)(F)F)cc3)ccc2O[C@@H]1CN(C)C(=O)Nc1ccc2c(c1)OCO2
    -2.0 | -0.1
Cc1noc(C)c1S(=O)(=O)Nc1ccc2c(c1)C(=O)N([C@H](C)CO)C[C@@H](C)[C@H](CN(C)CC1CCCCC1)O2
    -1.5 | -0.5
C[C@@H]1CN([C@@H](C)CO)C(=O)c2cccc(NS(C)(=O)=O)c2O[C@H]1CN(C)C(=O)Nc1ccc2c(c1)OCO2
    0.1 | nt
Cc1noc(C)c1NC(=O)Nc1cccc2c1O[C@@H](CN(C)C(=O)NC(C)C)[C@H](C)CN([C@H](C)CO)C2=O
    -1.5 | nt
CCSc1nc(C)c2cc(OC)ccc2n1
    0.8 | -1.1
COc1ccc(S(=O)(=O)Nc2cccc3c2O[C@@H](CN(C)C(=O)Nc2c(C)noc2C)[C@H](C)CN([C@H](C)CO)C3=O)cc1
    -0.9 | nt
C[C@@H]1CN([C@H](C)CO)C(=O)c2cc(NC(=O)Nc3cccc4ccccc34)ccc2O[C@H]1CN(C)C(=O)Nc1ccc2c(c1)OCO2
    -2.8 | -0.1

The list goes on:
Each structure is followed by: BJeLR viab HTS | A1 inhib
C[C@@H]1CN([C@H](C)CO)C(=O)c2cc(NC(=O)CCN3CCOCC3)ccc2O[C@H]1CN(C)Cc1ccc(C(=O)O)cc1
    1.7 | -0.2
Cc1nc(SCC(=O)O)c2oc3ccccc3c2n1
    -3.2 | 0.0
CCOC(=O)c1c(CSc2ccc(C)cc2)n(C)c2cc(Br)c(O)c(CN(C)C)c12
    -3.1 | nt
O=C(Cn1c(=O)c2sccc2n(CC(=O)Nc2cccc(F)c2)c1=O)NCCc1ccccc1
    2.1 | nt
Cc1noc(C)c1NC(=O)Nc1ccc2c(c1)C(=O)N([C@@H](C)CO)C[C@@H](C)[C@@H](CN(C)C)O2
    0.0 | -0.6
CNC[C@@H]1Oc2c(NC(=O)Nc3ccc(OC)cc3)cccc2C(=O)N([C@H](C)CO)C[C@@H]1C
    -3.8 | nt
Cc1ccc(S(=O)(=O)N(C)C[C@H]2Oc3c(NC(=O)c4cc(C)nn4C)cccc3C(=O)N([C@@H](C)CO)C[C@H]2C)cc1
    0.9 | nt
O=C(NCCc1ccccc1)c1sc(=S)n2c1[nH]c(=O)c1ccccc12
    3.0 | -1.0
COc1ccc(S(=O)(=O)N2CCC(C)CC2)cc1
    -2.1 | 0.3
C[C@H](CO)N1C[C@H](C)[C@@H](CN(C)Cc2ccc3c(c2)OCO3)Oc2c(NC(=O)C3CCCCC3)cccc2C1=O
    -2.5 | nt

The listing continues.
compound | BJeLR viab HTS | A1 inhib
O=C(Nc1ccccc1C(=O)Nc1ccccc1)c1cccs1 | -1.8 | 0.0
O=C1CC(c2ccco2)CC2=C1C(c1ccco1)N(C(=O)C(F)(F)F)c1ccccc1N2 (stereo not given) | -3.8 | 1.2
Cc1noc(C)c1NC(=O)Nc1cccc2c1O[C@@H](CN(C)C)[C@H](C)CN([C@H](C)CO)C2=O | 5.9 | nt
Cc1cc2c(cc1S(=O)(=O)NCC1CCCO1)OCC(=O)N2 (stereo not given) | 0.0 | -0.2
O=C(Sc1ccccc1)c1cccc(Cn2cc(C(F)(F)F)ccc2=O)c1 | -5.7 | -0.8
COc1ccc(-n2ncc(NC(=O)N3CCOCC3)c2C)cc1 | -3.0 | -0.6
O=C(c1ccco1)N1CCN(Cc2ccccc2Br)CC1 | 0.1 | -0.4
Cc1oc(-c2ccccc2)cc1C(=O)Nc1cccc(/C=C\C(=O)O)c1 | 0.6 | -1.7
C[C@H]1CN([C@@H](C)CO)C(=O)c2cc(NC(=O)C3CC3)ccc2O[C@H]1CN(C)C(=O)Nc1cccc2ccccc12 | -11 | 1.6
CC1CC(C)(C)NC(=S)N1CCC(=O)Nc1ccc(Cl)cc1 (stereo not given) | -4.3 | nt
COC(CN1C(=O)C2C3C=CC(C3)C2C1=O)OC (stereo not given) | -1.7 | -0.4
C[C@@H]1CN([C@@H](C)CO)C(=O)c2cccc(NS(=O)(=O)c3ccc(Cl)cc3)c2O[C@H]1CN(C)S(=O)(=O)c1ccccc1 | 2.0 | nt
COc1ccc(NC(=O)c2ccc3c(c2)NC(=O)c2ccccc2S3)cc1Cl | 11 | 0.1
C[C@@H]1CN([C@H](C)CO)C(=O)c2cccc(NC(=O)C3CC3)c2O[C@@H]1CN(C)S(=O)(=O)c1cn(C)cn1 | 2.0 | nt
C[C@@H]1CN([C@H](C)CO)C(=O)c2cc(N(C)C)ccc2O[C@H]1CN(C)S(C)(=O)=O | 1.0 | 0.8

Following part.
compound | BJeLR viab HTS | A1 inhib
C[C@H]1CN([C@@H](C)CO)C(=O)c2cccc(NC(=O)c3ccc(-c4nccs4)cc3)c2O[C@@H]1CN(C)Cc1ccc(Oc2ccccc2)cc1 | 0.7 | nt
Cc1ccc(S(=O)(=O)N(C)C[C@@H]2Oc3c(NC(=O)NC4CCCCC4)cccc3C(=O)N([C@@H](C)CO)C[C@@H]2C)cc1 | -7.6 | nt
C[C@@H]1CN([C@@H](C)CO)C(=O)c2cccc(NS(=O)(=O)c3cccs3)c2O[C@@H]1CN(C)Cc1ccc(Cl)c(Cl)c1 | -1.7 | nt
Cc1ccc(S(=O)(=O)N(C)C[C@H]2Oc3ccc(NC(=O)Nc4ccc5c(c4)OCO5)cc3C(=O)N([C@H](C)CO)C[C@@H]2C)cc1 | -2.7 | 1.8
CCOc1ccc(N=C2NC(=O)S/C2=C\c2ccc(OC)cc2)cc1 | -1.8 | nt
CCOC(=O)N1CCC(NC(=O)c2cc(Sc3ccc(Cl)cc3)nc3ccccc23)CC1 | 2.7 | nt
COc1ccc(CN(C)C[C@@H]2Oc3c(NS(=O)(=O)c4ccc(C)cc4)cccc3C(=O)N([C@H](C)CO)C[C@H]2C)cc1 | -1.0 | nt

An excerpt from above in order of SMILES length, descending:
compound | BJeLR viab HTS | A1 inhib
Cc1ccc(S(=O)(=O)N(C)C[C@H]2Oc3ccc(NC(=O)Nc4ccc5c(c4)OCO5)cc3C(=O)N([C@H](C)CO)C[C@@H]2C)cc1 | -2.7 | 1.8
Cc1ccc(S(=O)(=O)N(C)C[C@@H]2Oc3c(NC(=O)NC4CCCCC4)cccc3C(=O)N([C@@H](C)CO)C[C@@H]2C)cc1 | -7.6 | nt
COc1ccc(CN(C)C[C@@H]2Oc3c(NS(=O)(=O)c4ccc(C)cc4)cccc3C(=O)N([C@H](C)CO)C[C@H]2C)cc1 | -1.0 | nt
C[C@@H]1CN([C@H](C)CO)C(=O)c2cccc(NC(=O)C3CC3)c2O[C@@H]1CN(C)S(=O)(=O)c1cn(C)cn1 | 2.0 | nt
C[C@@H]1CN([C@H](C)CO)C(=O)c2cc(N(C)C)ccc2O[C@H]1CN(C)S(C)(=O)=O | 1.0 | 0.8
CCOc1ccc(N=C2NC(=O)S/C2=C\c2ccc(OC)cc2)cc1 | -1.8 | nt
